# AID923 = qHTS Assay for Allosteric/Competitive Inhibitors of Caspase-1: Spectroscopic Profiling in AFC Spectral Region; compound fluorescence, AFC spectral region (405/520 nm); almost no hit is shown here; Potency, µM (doses to about 57.5 µM), for the others: at the top dose fluorescence increase, actives largely listed as activators; hit rate 1.1% among 75,000; active means well fitted activation curve with a large enough effect; inconclusive means small, poorly fitted or top-dose-only effect;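 further: potency means the concentration at half of the fitted maximal effect; 0% is about no effect; scaled to a free AFC standard on each plate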
#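 Compound autofluorescence profiled at 405 nm ex/520 nm em during kinetic caspase 1 run (50 nM enzyme, 5 uM Ac-WEHD-AFC, HEPES pH 7.5, 10 mM DTT). Titration up to 57 uM; baseline from regression intercept, normalized to AFC standard curve.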
# TSHR ag = agonists of human thyroid stimulating hormone receptor. P16473. HEK293-CNG-TSHR cells (CNG channel as cAMP sensor), membrane potential dye, cAMP. Potency, µM (highest dose often 57.1 µM), inactives show at the highest dose activation, usual class: activators. hit rate 0.48% among 73,000; active = well fitted activation curve of enough size with the parental cells flat; inconclusive = any curve in the parental cells; inactive = parental cells flat and receptor cells flat or falling; further: potency means the concentration at half of the fitted maximal effect; % of control where 0% means no effect; weak receptor curves with flat parental cells got no call and are not listed
# Target sequence (P16473 whole entry, looked up): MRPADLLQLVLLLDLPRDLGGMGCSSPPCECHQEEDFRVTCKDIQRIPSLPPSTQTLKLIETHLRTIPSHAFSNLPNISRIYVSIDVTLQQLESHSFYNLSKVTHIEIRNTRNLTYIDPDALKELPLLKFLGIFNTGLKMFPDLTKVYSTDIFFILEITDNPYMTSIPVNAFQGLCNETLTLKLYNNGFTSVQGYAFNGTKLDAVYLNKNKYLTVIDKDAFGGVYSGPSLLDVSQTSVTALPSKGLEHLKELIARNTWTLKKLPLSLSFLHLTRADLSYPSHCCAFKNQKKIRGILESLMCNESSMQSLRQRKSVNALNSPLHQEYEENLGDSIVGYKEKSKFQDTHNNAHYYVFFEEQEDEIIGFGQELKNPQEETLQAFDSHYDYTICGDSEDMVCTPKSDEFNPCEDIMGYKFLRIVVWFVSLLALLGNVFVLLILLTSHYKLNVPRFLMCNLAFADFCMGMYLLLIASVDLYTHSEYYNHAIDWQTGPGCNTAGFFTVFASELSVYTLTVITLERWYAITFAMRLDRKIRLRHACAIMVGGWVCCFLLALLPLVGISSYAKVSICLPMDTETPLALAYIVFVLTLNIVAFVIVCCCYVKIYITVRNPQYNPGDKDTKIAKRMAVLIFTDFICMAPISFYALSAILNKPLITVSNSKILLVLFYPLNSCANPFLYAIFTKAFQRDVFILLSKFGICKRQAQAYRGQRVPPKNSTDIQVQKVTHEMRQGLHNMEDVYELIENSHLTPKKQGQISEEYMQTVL
#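 HEK 293 cells stably expressing TSHR and a cAMP-gated CNG channel; parental CNG-only cells as counterscreen. Cells preloaded 60 min with membrane potential dye plus 100 uM RO 20-1724, then compound 30 min; fluorescence read at 590 nm.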
# A647 autofl = compound autofluorescence in A647 spectral region | Compound fluorescence, A647 channel (570/671 nm), Tris buffer | max dye-equivalent concentration, M | 59,000 tested, under 10 active | AID 592; active means above 1 µM dye equivalent; inconclusive means 0.1 to 1 µM; inactive means 0.1 µM or less;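 further: values scaled relative to a standard on each plate; highest value over a series up to 38 µM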
#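 Compound fluorescence was measured in 100 mM Tris buffer, pH 8.0, after 15 min at room temperature, using 570 nm excitation and 671 nm emission filters. Signal was normalized to a per-plate Alexa 647 standard curve and expressed as dye-equivalent concentration at each compound concentration.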
# Resorufin autofl = compound fluoresces in the resorufin spectral region; hit rate 0.04% among 59,000; Compound fluorescence, resorufin region 547/598 nm, buffer; stronger effect = higher value; max dye-equivalent concentration, M; active = above 10 nM dye equivalent; inconclusive = 1 to 10 nM; inactive = 1 nM or less; a few of its hits are not listed in these tables; further: highest value over a series up to 38 µM
#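 Compounds in 100 mM Tris, pH 8.0, incubated 15 min at room temperature, then fluorescence read at 547 nm excitation/598 nm emission. Signal converted to dye-equivalent concentration via an on-plate six-point resorufin standard curve, per compound concentration.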
# A488 fluor = compound fluoresces in the A488 spectral region; compound autofluorescence, A488 spectral region, dye equivalency; stronger effect = higher value; max dye equivalency, M; hit rate 0.1% among 59,000; AID 591; active = above 10 nM dye equivalent; inconclusive = 1 to 10 nM; inactive = 1 nM or less; about half of its hits are not listed in these tables;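 further: highest value over a series up to 38 µM; compound alone in buffer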
#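 Compound autofluorescence was read in 100 mM Tris pH 8.0 after 15 min at room temperature, ex 480 nm/em 540 nm. Intensities were converted to A488 dye-equivalent concentration using an on-plate six-point A488 standard curve.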
# Numbers without * were called inactive; i = inactive; ? = inconclusive; . = no result given; & = joins results of further samples; [ ] = dose if it differs, or a comment.
SMILES,AID923,TSHR ag,A647 autofl,Resorufin autofl,A488 fluor
CC(=O)c1c(C(C)=O)c(C)n(Cc2ccccc2)c1C,0.9%,?,.,.,.
COc1cc(C2C(C#N)=C(N)Oc3cc(C)n(CCc4ccccc4)c(=O)c32)cc2c1OCO2 (centres undefined),.,.,3.6e-08,i,i
COC(=O)[C@@H]1C[C@H]1[C@@H](NC(=O)c1cnccn1)c1ccccc1,0.6%,7%,.,.,.
CCOC(=O)CCNc1n[nH]c(=O)[nH]c1=O,.,.,1.1e-08,i,i
Cc1cc2c(nc1C)CCCN2C[C@@H](O)CN1CCN(C)CC1,1.7%[11.5 µM],-2%[11.4 µM],.,.,.
CCS(=O)(=O)C(=C(Nc1ccc(OC)cc1)Nc1ccc(OC)cc1)S(=O)(=O)CC,1.7%,-3%[11.4 µM],.,.,.
COc1ccc(CNC(=O)CS(=O)Cc2nc(-c3ccccc3C)oc2C)cc1 (centres undefined),3.2%,13%,.,.,.
Cc1cc(NC(=O)c2noc3c2CCCC3)no1,0.3%,-8%,1.6e-09,i,i
Oc1c(Cl)cc(Cl)c(Cl)c1Cc1c(O)c(Cl)cc(Cl)c1Cl,-4.8%,?,.,.,.
CN(C)c1ccc(NC(=O)CSc2nc3c(c(=O)[nH]2)CCCC3)cc1,0.0%,16%[11.4 µM],4.3e-08,i,i
COc1ccc2cc(CCNC(=O)C3CCCC3)c(=O)[nH]c2c1,1.7%,-11%,.,.,.
CN(C)CC/C=C1\c2ccccc2CSc2ccccc21,1.2%[25.7 µM],2%[25.6 µM],1.9e-08,i,i
COCc1c(C(=O)OCC(=O)c2c(N)n(CC(C)C)c(=O)n(C)c2=O)oc2ccccc12,-0.9%,?,3e-08,i,i
Cc1nn(-c2ccccc2)c(Cl)c1C(=O)Nc1nnc(C2CCCC2)s1,1.2%,-8%,1e-09,i,i
Cc1nc2cc(NC(=O)Nc3nccs3)ccc2n1C,-0.8%,-7%,3.9e-09,i,i
COc1ccc(Cc2nnc(SCc3nc4ccccc4c(=O)[nH]3)o2)cc1,-0.4%,4%,1.8e-08,i,i
COc1ccccc1NC(=O)CSc1ccc2nnc(-c3ccncc3)n2n1,-2.9%,?,.,.,.
CO[C@H]1COC(=O)[C@H](C)COC(=O)[C@H](C)NC(=O)C/C=C\[C@H]1C,0.8%[11.5 µM],-3%[11.4 µM],.,.,.
CS(=O)(=O)N(Cc1nnc(-c2cccs2)o1)c1ccc(Cl)cc1F,0.2%,5%,3.4e-08,i,i
CCCOC(=O)CN1C(=O)c2ccc(C(=O)OCCC)cc2C1=O,0.2%,1%,1e-09,i,i
Cc1nc(NCc2ccccc2)c2nc(-c3ccccc3)n(CCN3CCCC3)c2n1,1.1%,?,.,.,.
C=CCOC(=O)C(C#N)c1nc2ccccc2nc1N1CCN(Cc2ccc3c(c2)OCO3)CC1 (centres undefined),9.2%,?,1e-09,i,i
COc1ccc(N(CC(=O)N2c3ccccc3CC2C)S(=O)(=O)c2c(C)noc2C)cc1 (centres undefined),2.8%,?,3.8e-08,i,i
O=C(Nc1ccccc1C(=O)NCCN1CCOCC1)c1ccco1,3.1%,1%,1e-09,i,i
O[C@@H](COc1ccc(Cl)cc1Cl)CN1CCCC1,8.9%[11.5 µM],-4%[11.4 µM],3.9e-08,i,i
CCOC(=O)c1cc(C)sc1NC(=O)C1CCC1,-0.7%,19%,1e-09,i,i
O=C(CCS(=O)(=O)c1ccc(Br)cc1)N1CCN(c2ccccc2)CC1,-1.1%,?,1.5e-08,i,i
COc1cc(S(=O)(=O)Nc2ccccc2C)ccc1Cl,-3.9%,10%,3.9e-08,i,i
CC(C)(C)c1nnc2sc(SC/C(O)=C(\C#N)c3nc4ccccc4[nH]3)nn2c1=O,1.4%,0%,1e-09,i,i
COC(=O)[C@H](C)[C@H]1C[C@]1(C)[C@H](NC(=O)OCc1ccccc1)c1ccccc1,0.4%,?,.,.,.
O=C(c1cccs1)N(Cc1ccccn1)Cc1ccco1,0.9%,5%,1.5e-08,i,i
COc1cc(-c2noc(-c3cccc(Cl)c3)n2)cc(OC)c1OC,-1.9%,.,1e-09,i,i
CCCn1c(C)nc2c(NCC(C)(C)CN(C)C)nc(C)nc21,1.2%,10%,.,.,.
Cc1nn(-c2ccc(S(=O)(=O)O)cc2)c(O)c1N=Nc1ccc(-c2ccc(N=Nc3ccc4c(S(=O)(=O)O)cc(S(=O)(=O)O)c(N)c4c3O)c(O)c2)cc1O.[Cu].[Cu],-1.1%[11.5 µM],-3%[11.4 µM],1e-09,i,i
Nc1nnc(-c2cccc(Cl)c2Cl)c(N)n1,-1.0%,3%&3%,6.1e-09&2.8e-08,i,i
COC(=O)c1ccccc1NC(=O)CN(Cc1ccccc1)S(C)(=O)=O,0.3%,23%,1e-09,i,i
O=C(c1ccc(F)cc1)N1CCN(c2ncccn2)CC1,-0.1%,1%,1e-09,i,i
CCOC(=O)c1cnc(SCc2ccc(C)cc2)nc1N,-1.4%,?,7.3e-09,i,i
CN1CCn2c1nc(N1CCCCC1)nc2=O,-1.0%,1%,1e-09,i,i
COc1ccc(/C=C/NC(=O)c2ccc(OC)cc2)cc1,0.4%[11.5 µM],-8%[11.4 µM],.,.,.

# Retrieved by compound from the list above:
SMILES,AID923,TSHR ag,A647 autofl,Resorufin autofl,A488 fluor
COc1cc(-c2noc(-c3cccc(Cl)c3)n2)cc(OC)c1OC,-1.9%,.,1e-09,i,i
O=C(c1ccc(F)cc1)N1CCN(c2ncccn2)CC1,-0.1%,1%,1e-09,i,i

# Next part:
SMILES,AID923,TSHR ag,A647 autofl,Resorufin autofl,A488 fluor
O=C(Nc1ccccc1)N1CCN2C(=O)c3ccccc3C12c1ccccc1 (centres undefined),0.1%,1%,.,.,.
CCC(C)C(NC(=O)OC(C)(C)C)C(=O)NC(CC(C)C)C(N)=O (centres undefined),0.6%,1%,4.1e-09,i,i
COC(=O)C1C2C=CC3(CN(c4cccc(Cl)c4)C(=O)C13)O2 (centres undefined),0.2%,-5%,.,.,.
Cc1cccc(N(CC(=O)NC2CCCCC2)C(=O)c2c(C)noc2C)c1,0.5%,?,1.7e-08,i,i
O=C(c1ccccc1OCc1ccccc1Br)N1CCN(c2ncccn2)CC1,3.3%,?,1.9e-08,i,i
O=C(COC(=O)c1cncc(Br)c1)NCc1ccco1,3.4%,-4%,1e-09,i,i
CC1CCC(NC(=O)Cn2cc3c(n2)CCCC3)CC1 (centres undefined),-2.2%,4%,.,.,.
Nc1cc(=O)nc(SCC(=O)NC2CCCCC2)n1-c1ccccc1,-0.6%,0%,2.6e-08,i,i
Cc1cccc(N2CCN(c3nc4ccc(Cl)cc4n4cnnc34)CC2)c1C,0.0%,-1%,.,.,.
CCSCCCC(=O)O,-1.1%[11.5 µM],?,5.7e-08,i,i
COc1ccc(NS(=O)(=O)c2ccc(Br)s2)cc1OC,-6.0%,12%,1.1e-08,i,i
COc1ccc(C2CC(C(F)(F)F)n3nc(C(=O)NCCCn4ccnc4)cc3N2)cc1OC (centres undefined),-0.7%,?,2.3e-08,i,i
Cc1ccc(S(=O)(=O)Nc2ccccc2C(N)=O)cc1,-0.8%,-12%,5.3e-09,i,i
CCOc1ccc(N2CC(=O)N/C2=N\c2nc(C)cc(C)n2)cc1,0.6%,.,1e-09,i,i
O=C(Nc1ccc2c(c1)OCO2)c1ccc(COc2ccc3c(c2)CCC3)o1,1.0%,?,1e-09,i,i
CC(C)Cn1c2c(c(O)c(C(=O)Nc3ncccc3O)c1=O)CCCC2,1.4%,.,2e-08,i,i
O=C(c1cc(-c2ccco2)on1)N1CCOCC1,1.0%,6%,5.8e-09,i,i
Oc1ccc(-c2[nH]ncc2-c2cccc3cccnc23)c(O)c1,-0.7%,26%,2.8e-08,i,i
CCn1c(SCC(N)=O)nc2ccccc2c1=O,-1.4%,4%,1.5e-08,i,i
CCOCCCNC(=O)Cn1cc2c(n1)CCCCC2,-3.6%,3%,.,.,.
CCOc1cc(C(=O)NC(C)c2ccncc2)cc(OCC)c1OCC (centres undefined),-0.8%,-4%,1e-09,i,i
COC(=O)c1sccc1NC(=O)c1ccc(OC)cc1,0.1%,32%,5.6e-08,i,i
COc1ccccc1-c1cc(NCc2ccccc2)ncn1,2.9%,?,2.1e-08,i,i
COc1ccc(S(=O)(=O)NCCSCc2ccco2)cc1Cl,1.6%,-1%,4.3e-09,i,i
O=C(COc1ccccc1)N1CCN(C(=O)c2cccs2)CC1,1.2%,1%,6.2e-08,i,i
O=c1[nH]c(CN2CCc3ccccc3C2)nc2ccccc12,3.3%,0%,1e-09,i,i
CCOC(=O)c1c(C)n(C)c2cc(Br)c(C(=O)OC)cc12,0.7%,27%,.,.,.
CC(Oc1ccc(Cl)cc1Cl)C(=O)NCCCN(C)C (centres undefined),-1.1%,-1%,.,.,.
COC(=O)NC(CC(C)=O)c1ccc(Cl)cc1 (centres undefined),-0.4%[11.5 µM],1%[11.4 µM],.,.,.
COc1ccc(F)cc1S(=O)(=O)NC(Cc1ccccc1)C(N)=O (centres undefined),0.0%,-1%[11.4 µM],5.2e-09,i,i
O=C(Nc1cccc(-c2nnc(-c3ccccc3)o2)c1)C1CCCCC1,-4.6%,?,3.3e-08,i,i
Cc1cccc(CNc2ccnc(-c3cccc(NS(C)(=O)=O)c3)n2)c1,-3.8%,27%,5e-09,i,i
Cc1onc(-c2c(F)cccc2Cl)c1C(=O)OCN1C(=O)c2ccccc2C1=O,4.5%,?,.,.,.
CCc1nnc(NC(=O)Nc2ccc(OC)cc2)s1,0.7%,-2%[11.4 µM],4.2e-08,i,i
O=c1cc(O)nc2n1CCCS2,.,.,6.6e-08,i,i
NC(=O)c1cccc2c1C(=O)N(C1CCCCC1)C2,-1.4%,-10%,.,.,.
COc1cc(C(=O)Nc2ccccc2N2CCN(S(C)(=O)=O)CC2)cc(OC)c1OC,-0.2%,?,7.7e-08,i,i
Cc1cccc(-c2c3c(=O)n(C)c(=O)n(C)c3cn2C(C)(C)C)c1,-0.8%,-4%,1.3e-09,i,i
O=c1cnc2cnc(N3CCOCC3)nc2n1C1CC1,10%,10%,2.5e-08,i,i
CC(=O)Nc1ccc(C(=O)Nc2ccc3c(c2)OCO3)cc1,1.2%,-10%,6.6e-09,i,i

# Continued, overlapping the part above by two compounds.
SMILES,AID923,TSHR ag,A647 autofl,Resorufin autofl,A488 fluor
O=c1cnc2cnc(N3CCOCC3)nc2n1C1CC1,10%,10%,2.5e-08,i,i
CC(=O)Nc1ccc(C(=O)Nc2ccc3c(c2)OCO3)cc1,1.2%,-10%,6.6e-09,i,i
NC(N)=NC(N)=Nc1ccc(S(N)(=O)=O)cc1,1.9%[11.5 µM],8%[11.4 µM],3e-08,i,i
Cc1oc2c(c1C(=O)NC(Cc1c[nH]c3ccccc13)C(=O)O)CCCC2 (centres undefined),-0.2%,19%,.,.,.
CCOC(=O)CNc1c(N2CCN(c3ccccn3)CC2)c(=O)c1=O,-0.3%,-12%,.,.,.
Cc1c(N=Cc2nc3ccccc3[nH]2)c(=O)n(-c2ccccc2)n1C,-0.5%,?,1.5e-09,i,i
CCOc1ccc2nc(NCCO)[nH]c2c1,-0.5%,3%,2.2e-09,i,i
CC(=O)N(CC1CCCO1)c1nnc(-c2ccccn2)s1 (centres undefined),-0.3%,1%,4.2e-08,i,i
CN1CCc2ccccc2[C@@H]1Cc1ccccc1NC(=O)c1sc2ccccc2c1Cl,-0.7%[11.5 µM],.,4.6e-08,i,i
COc1cc(C(=O)N2CCN(c3ncnc4sc(C)c(C)c34)CC2)cc(OC)c1OC,0.0%,?,1.6e-08,i,i
CC(NC(=O)c1ccccc1)C(=O)NC1=NCCS1 (centres undefined),-1.1%,2%,2.3e-08,i,i

# From PubChem BioAssay

# Not all compounds are listed; count on the stated rates, not on these rows.
